GALR2 ag: GALR2 (human) receptor agonism; GALR2-expressing cells, agonist activation read-out; 140,000 compounds, 0.48% hits; activation, %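 (tested at 5 µM)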; AID 803; O43603;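 active means above mean plus 3 SD of all compounds, about 5% in these data, not always enough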;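 further: 0% = vehicle buffer wells and 100% = reference agonist at full effect; tested in CHO reporter cells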
Target sequence (O43603 whole entry, looked up): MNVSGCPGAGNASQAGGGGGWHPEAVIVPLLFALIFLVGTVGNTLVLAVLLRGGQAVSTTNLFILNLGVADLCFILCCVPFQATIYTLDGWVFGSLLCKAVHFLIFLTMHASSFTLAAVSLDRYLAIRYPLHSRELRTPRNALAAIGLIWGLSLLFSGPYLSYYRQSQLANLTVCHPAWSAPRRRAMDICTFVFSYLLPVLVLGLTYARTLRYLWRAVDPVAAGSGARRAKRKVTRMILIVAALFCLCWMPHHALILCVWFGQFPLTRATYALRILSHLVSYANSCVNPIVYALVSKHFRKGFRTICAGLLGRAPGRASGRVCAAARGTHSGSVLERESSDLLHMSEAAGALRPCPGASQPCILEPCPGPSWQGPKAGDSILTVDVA
RGS16-Gao: RGS16-Galphao interaction regulator (human) | O15492+P09471 | 220,000 compounds, 0.38% hits | AID 1441 | bead-based flow cytometry RGS16-Galphao binding, fluorescence; actives lie on both sides | binding response (% of control), % at 10 µM;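 active means below 25% or above 175%, edge rows of some plates excepted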;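 further: Galphao activated by GDP with aluminum fluoride before binding; 100% = wells without compound and 0% = beads without RGS; some results beyond the cut were filed as inactive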
Target sequence (O15492 whole entry, looked up): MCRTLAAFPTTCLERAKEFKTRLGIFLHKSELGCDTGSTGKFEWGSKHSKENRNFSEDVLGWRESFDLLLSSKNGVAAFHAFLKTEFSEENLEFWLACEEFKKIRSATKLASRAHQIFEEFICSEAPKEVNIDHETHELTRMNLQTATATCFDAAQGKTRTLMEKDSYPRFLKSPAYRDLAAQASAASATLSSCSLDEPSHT
Target sequence (P09471 whole entry, looked up): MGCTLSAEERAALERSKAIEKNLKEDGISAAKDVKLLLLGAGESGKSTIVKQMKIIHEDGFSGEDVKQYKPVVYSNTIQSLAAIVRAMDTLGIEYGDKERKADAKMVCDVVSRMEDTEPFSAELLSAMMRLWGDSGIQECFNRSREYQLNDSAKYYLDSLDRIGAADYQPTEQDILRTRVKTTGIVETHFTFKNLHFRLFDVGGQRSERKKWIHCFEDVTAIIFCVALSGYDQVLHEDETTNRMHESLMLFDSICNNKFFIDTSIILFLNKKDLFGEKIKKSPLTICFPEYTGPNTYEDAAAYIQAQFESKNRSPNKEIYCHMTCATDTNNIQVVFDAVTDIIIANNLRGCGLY
PKD1 kinase inh: blocks activity of human protein kinase D1; Q15139; PKD1 kinase fluorescence polarization assay; AID 797; inhibition, %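 (about 10 µM by stock and volumes)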; 200,000 compounds, 0.056% hits;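 active means inhibition of 50% or more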;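 further: controls were vehicle for no effect and a reference inhibitor for full effect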
Insulin prom inh: TRM-6 insulin promoter activity inhibition; TRM-6 cells (human fetal islet line), insulin promoter-eGFP reporter, imaging; reporter expression induced with tamoxifen; inhibition, % at 2 µM; 130,000 compounds, 0.9% hits; AID 1273;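 active means inhibition above the mean plus 3 SD, with well images judged a real hit on visual review, cut at about 60% in these data, passing the limit was not always enough; inconclusive means inhibition over the cutoff but images rejected on review; inactive means inhibition not above the cutoff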
HSV augment: HSV replication enhancement; HSV replication augmentation in cells, fold increase; 220,000 compounds, 0.005% hits; AID 1956; maximum fold increase;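 active means peak rise of 1.5-fold or more in the series; inconclusive means self-fluorescent or not available for retest; tested in PC3 cells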;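 further: first round at 10 µM; read as green reporter fluorescence; hits show the peak of a series up to 25 µM; 1 = signal of infected wells without compound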
Insulin prom inh cell count: second read-out of Insulin prom inh, no call of its own (marks repeat the call); normalized cell count, %; measured here: cell count, toxicity; reference of the scale not given here;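 cells exposed to compound for 48 h; stained nuclei by imaging scaled within each plate; lower means fewer cells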
HSV augment primary fold: second read-out of HSV augment, no call of its own (marks repeat the call); fold increase; compound at 10 µM; measured here: primary screen fold increase 10 uM; tested in PC3 cells;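 GFP signal in the first replicate; 1 = infected wells without compound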
* marks the source's active call; other numbers are inactive results; i = inactive; ? = inconclusive; / = not tested or not shown; & = joins results of further samples.

SMILES	GALR2 ag	RGS16-Gao	PKD1 kinase inh	Insulin prom inh	Insulin prom inh cell count	HSV augment	HSV augment primary fold
O=C(NCc1ccco1)C1CCCN1C(=O)Nc1cccc(Cl)c1 (stereo not drawn)	/	107.3	-0.4	/	/	i	1.02
CC(=O)NCc1ccc(S(=O)(=O)NC2CCN(Cc3ccccc3)CC2)cc1	/	93.1	/	/	/	i	1.01
O=C(O)Cc1coc2ccc3ccccc3c12	/	102.2	-1.3	-64.3	82.9	i	0.81
CCCn1c(=O)[nH]c(=O)c2[nH]cnc21	0.1	103.5	-10.8	22.7	144.9	i	0.92
CC(C)C1Nc2c(C(=O)O)cccc2C(Nc2ccccc2C(=O)O)C1(C)C (stereo not drawn)	/	102.0	1.8	/	/	i	0.81
c1ccc2[nH]c(SCC3CCCCO3)nc2c1 (stereo not drawn)	/	96.9	0.9	/	/	i	0.97
CCc1ccc(C(=O)/C=C/NCc2ccc(F)cc2)cc1	-0.2	99.8	-0.2	/	/	1.5*	1.34*
Cc1cc2sc(C(=O)O)c(C)c2s1	-4.0	101.8	1.1	-338.9	38.5	i	0.87
COc1ccc(/C=N/n2cc(-c3ccccc3)nc2N)cc1	-1.1	84.2	-10.7	38.5	103.7	i	0.97
CC1Cc2nc(SCC(=O)NCc3ccco3)n(-c3ccccc3)c(=O)c2S1 (stereo not drawn)	-0.5	101.0	0.6	-42.9	110.5	i	1.06
C(#CCN1CCOCC1)COC(c1ccccc1)c1ccccc1	-2.0	78.4	-1.5	-188.4	57.3	i	1.01
CC(NC(=O)N(Cc1ccccc1)Cc1ccc2c(c1)OCO2)(C(F)(F)F)C(F)(F)F	-1.3	96.7	-4.1	0.0	95.7	i	0.78

Random excerpt: 7 compounds from above.
SMILES	GALR2 ag	RGS16-Gao	PKD1 kinase inh	Insulin prom inh	Insulin prom inh cell count	HSV augment	HSV augment primary fold
c1ccc2[nH]c(SCC3CCCCO3)nc2c1 (stereo not drawn)	/	96.9	0.9	/	/	i	0.97
CC(=O)NCc1ccc(S(=O)(=O)NC2CCN(Cc3ccccc3)CC2)cc1	/	93.1	/	/	/	i	1.01
CCCn1c(=O)[nH]c(=O)c2[nH]cnc21	0.1	103.5	-10.8	22.7	144.9	i	0.92
CC(NC(=O)N(Cc1ccccc1)Cc1ccc2c(c1)OCO2)(C(F)(F)F)C(F)(F)F	-1.3	96.7	-4.1	0.0	95.7	i	0.78
CC1Cc2nc(SCC(=O)NCc3ccco3)n(-c3ccccc3)c(=O)c2S1 (stereo not drawn)	-0.5	101.0	0.6	-42.9	110.5	i	1.06
CCc1ccc(C(=O)/C=C/NCc2ccc(F)cc2)cc1	-0.2	99.8	-0.2	/	/	1.5*	1.34*
CC(C)C1Nc2c(C(=O)O)cccc2C(Nc2ccccc2C(=O)O)C1(C)C (stereo not drawn)	/	102.0	1.8	/	/	i	0.81

(cont.)
SMILES	GALR2 ag	RGS16-Gao	PKD1 kinase inh	Insulin prom inh	Insulin prom inh cell count	HSV augment	HSV augment primary fold
O=C(N/C(=C/c1cccs1)C(=O)N1CCOCC1)c1ccco1	-1.1	95.9	-5.0	10.0	84.7	i	0.82
c1c2c(cc3sc(N4CCCCC4)nc13)OCO2	-2.5	101.6	-1.5	/	/	/	/
COc1ccccc1NC(=O)COc1ccc(C(=O)OCC(=O)N2CCCC2=O)cc1OC	-1.7	103.4	2.0	60.0	82.3	i	0.917
Cc1csc(SCC(=O)Nc2sccc2C#N)n1	/	98.2	12.9	/	/	i	1.01
O=C1c2ccccc2C(Nc2ccc(F)c(Cl)c2)N1c1ccccn1 (stereo not drawn)	-3.0	102.3	-3.6	/	/	i	0.86
CC(C(=O)NCC1CCCO1)N(C(=O)c1snc(C(N)=O)c1N)c1cccc(F)c1 (stereo not drawn)	-1.8	94.8	-5.1	/	/	i	0.94
O=C(NCC(c1ccc(F)cc1)N1CCOCC1)c1ccccc1F (stereo not drawn)	/	91.6	/	/	/	i	1.09
CCOc1ccc(NS(=O)(=O)c2ccc(C)c(C(=O)NCCCn3ccnc3)c2)cc1	/	105.8	5.7	/	/	i	0.97
CCCCNc1ccc(C(CC(N)=O)NC(=O)Cc2cccc3ccccc23)cc1[N+](=O)[O-] (stereo not drawn)	/	101.9	/	/	/	i	0.85
CCn1nc(C)c(CN2CCc3c([nH]c4ccccc34)C2c2ccc(F)c(OC)c2)c1C (stereo not drawn)	/	103.5	3.3	/	/	i	0.9
O=C(COc1ccc(Cl)cc1)Nc1cc(S(=O)(=O)N2CCCCC2)ccc1N1CCCCC1	1.1	104.2	6.6	15.4	96.5	/	/
CC(=O)Oc1cc2c3c(c1)/C(=C1/SC(=S)NC1=O)C(=O)N3C(C)(C)C=C2C	/	101.7	/	/	/	i	1.15
CC(=O)c1cccc(NS(=O)(=O)N2CCCCC2)c1	-2.4	101.8	-6.7	-37.7	136.1	i	0.92
O=C(N/N=C/c1ccc2c(c1)OCO2)c1cc(-c2ccccc2Cl)nc2ccccc12	-2.8	122.3	-4.8	33.3	98.4	i	0.91
O=C(N/N=C/c1sc2ccccc2c1O)c1ccccc1	-1.8	93.7	-9.6	-5.9	56.7	?	/
COc1ccc(C(=O)Nc2nc3cc4c(cc3s2)OCO4)c(OC)c1	/	98.2	/	/	/	i	1.03
COc1ccc(-c2nc3ccccn3c2CN2CCN(c3ccccc3F)CC2)cc1	/	96.0	1.4	-66.7	134.0	i	0.96
O=C(Oc1ccccc1C(=O)N1CCOCC1)c1ccccc1	0.0	86.6	-10.0	12.5	129.9	i	0.95
CC(=O)c1ccccc1N(C(=O)Cn1nnc2ccccc21)C(C(=O)NCC1CCCO1)c1ccc(N2CCOCC2)cc1 (stereo not drawn)	/	112.9	-2.4	/	/	i	0.94
C=CCn1cnc2scc(-c3ccc(CC)cc3)c2c1=O	-1.7	106.4	-4.5	14.3	108.4	i	1.08
CC(C)(C)c1ccc(C(=O)Nc2ccc(S(N)(=O)=O)cc2)cc1	/	100.0	/	/	/	i	0.85
Cc1ncc([N+](=O)[O-])n1CCOC(=O)c1ccc(Br)cc1	/	106.5	-3.6	-50.0	61.9	i	1.04
O=C(Nc1nncs1)Oc1ccccc1	-1.7	104.7	-5.7	-391.4	41.0	i	1
CN1c2ccc(Cl)cc2C(=O)NC1C1CC=CCC1 (stereo not drawn)	/	104.3	/	/	/	i	1.19
O=c1[nH]ncn1-c1ccccc1	/	101.1	0.3	/	/	i	1.17
CCN=C1SC(CC(=O)Nc2ccc3c(c2)OCO3)C(=O)N1CC (stereo not drawn)	/	107.4	-4.0	/	/	i	0.98
CCOC(=O)c1c(C)[nH]c(C(=O)COC(=O)c2ccncc2)c1C	-2.9	105.6	-6.3	/	/	i	0.94
Cc1cccc2nc(COc3ccc(Cl)c4cccnc34)cn12	/	76.1	6.8	-13.5	87.6	i	0.96
Nn1c(Nc2ccccc2)nc2ccccc21	-0.1	97.6	-11.0	/	/	i	1.08
COc1ccc(N(C)C(=O)CCS(=O)(=O)c2cccc3nonc23)cc1	-0.7	96.8	-3.9	25.0	68.4	i	0.79
CN1CCCNc2nc3ccccc3nc21	/	99.6	/	/	/	i	1.34
Clc1ccccc1/C=N/NC1=Nc2cccc3cccc1c23	0.7	107.1	11.2	-37.5	156.7	i	1.28
CC1CCN(C(=O)C2CCC(CNS(=O)(=O)c3cccc4cccnc34)CC2)CC1 (stereo not drawn)	0.9	83.0	-6.8	/	/	/	/
CN=c1scc(C)n1/N=C/c1ccc(O)cc1	-2.3	104.5	-4.5	0.0	94.5	i	0.8
Cn1c(=O)c2c(c3ccccc31)OC(=O)CC2c1cccnc1 (stereo not drawn)	/	154.8	-6.9	/	/	i	1.02
CC(C)C(c1nnnn1Cc1ccco1)N1CCN(C2CCCC2)CC1 (stereo not drawn)	-1.5	97.6	-13.1	/	/	i	1.09
CCCCN(CCCC)C(=O)c1ccccc1NC(=O)CN1C(=O)c2ccccc2C1=O	-1.4	103.9	3.8	-16.1	70.1	i	0.907
O=S(=O)(c1cnc(Cl)c(Cl)c1)N1CCCc2ccccc21	0.9	71.2	-0.5	60.0	121.5	i	0.77
COc1cccc(-c2ccc(C#N)c(SCC(=O)NCCc3ccc(Cl)cc3)n2)c1	2.7	104.5	3.9	/	/	i	0.83
COc1ccc(Br)cc1S(=O)(=O)NCc1ccccc1	-0.1	80.9	-14.1	4.0	146.1	i	0.96
CCOC(=O)C1(CCCc2ccccc2)CCN(C2CCSCC2)CC1	/	101.0	-0.6	23.8	138.2	i	0.97
CCn1c(C)nc2cc(C(=O)N/N=C/c3ccccc3)ccc21	/	97.8	-6.8	/	/	i	0.9
O/N=C\c1cccn1-c1nccs1	/	104.2	-4.2	-27.3	84.1	i	0.9
COc1cc(/C=C2/C(=O)NN(c3ccc(Cl)cc3)C2=O)ccc1OC(=O)c1ccco1	-0.8	101.4	-8.9	21.1	160.9	i	1.08
CCC(=O)N(CCc1ccc(S(N)(=O)=O)cc1)C1CC(=O)N(c2ccc(OC)cc2)C1=O (stereo not drawn)	/	100.7	-8.8	/	/	i	0.94
CCN1C(=O)/C(=C2/Sc3ccccc3N2CCCS(=O)(=O)O)SC1=S	-2.3	112.6&103.2	-7.6&-6.3	/	/	i	0.95&0.92
Cc1csc2nc3ccccc3c(=O)n12	-1.3	97.8	0.7	-114.3	68.2	/	/
CCOC(=O)c1ccccc1NC(=O)CSc1cccc[n+]1[O-]	-0.1	103.6	-7.7	-47.2	166.2	i	0.95
CCOC(=O)C(NC(=O)Nc1ccccc1)(OCC)C(F)(F)F (stereo not drawn)	-4.4	103.0	-8.2	-12.5	95.0	i	0.98
COc1ccc(-c2c[n+]3c4n2CCCCC4=C(c2ccccc2)C3)cc1	-3.3	98.3	-9.9	27.0	147.3	i	1.05
CCNC(=O)CSc1nc(-c2ccc(F)cc2)cs1	/	99.7	-4.8	/	/	i	1
COC(=O)CC1Nc2ccccc2SC1=O (stereo not drawn)	-1.0	105.8	0.5	/	/	i	1.04
Nc1ncc(-c2ccccc2)n1CC1CCCO1 (stereo not drawn)	-0.4	103.5	10.9	-13.9	144.8	i	0.81
CCN(CC)S(=O)(=O)c1ccc(C(=O)OC2CCCCC2CN(C)C)cc1 (stereo not drawn)	-1.4	92.0	-10.0	-18.2	153.1	i	0.91
CCC/C(=N/Nc1ccc(Cl)cc1)c1cnnc(-c2ccccc2)n1	-0.6	/	-2.8	4.8	123.8	i	1.06
O=C(NCc1ccccn1)C1CC(c2ccccc2O)=NO1 (stereo not drawn)	/	18.7	-7.4	/	/	i	0.9
CN(c1ccccc1)c1ccc(/C=C(\C#N)c2nnc3n2CCCCC3)cc1[N+](=O)[O-]	-0.8	105.3	-11.6	/	/	i	0.81
CNc1ccccc1C(=O)OC	/	104.1	/	/	/	i	0.97
CCCCCC(=O)N/N=C(\C)c1ccc(Cl)cc1	-0.2	54.2	2.7	100.0*	0.4*	i	1.13
O=C(O)c1nsc(Cl)c1Cl	-2.2	102.5	-1.5	36.4	74.1	i	0.89

(listing goes on)
SMILES	GALR2 ag	RGS16-Gao	PKD1 kinase inh	Insulin prom inh	Insulin prom inh cell count	HSV augment	HSV augment primary fold
O=C(CC1C(=O)NCCN1Cc1c(F)cccc1Cl)NCc1ccccc1 (stereo not drawn)	/	83.1	-4.5	21.4	99.3	i	1.01
CCN(CC)CCC(c1cc(OC)c(OC)c(OC)c1)c1c(OC)cc(OC)c2ccc(=O)oc12 (stereo not drawn)	/	102.0	/	/	/	i	0.82
Clc1ccc(-c2noc(CSc3nnc(-c4ccncc4)n3-c3ccccc3)n2)cc1	-0.6	97.2	6.6	-16.7	86.0	i	1.1
O=c1c2cc(N3CCOCC3)ccc2[nH]c(=S)n1Cc1ccccn1	-0.5	99.7	4.1	/	/	i	0.89
NS(=O)(=O)c1ccc(NS(=O)(=O)c2ccc(NC(=S)Nc3ccccc3)cc2)cc1	-2.5	101.3	-1.8	6.2	139.2	i	1
Cc1ccc(CC2CC(=O)N(c3ccc4c(c3)OCCO4)C2=O)cc1 (stereo not drawn)	-2.4	105.9	2.6	/	/	i	1.07
CCOc1ncccc1C(=O)OCC(=O)N(CC)c1ccccc1	/	101.3	-3.9	-73.3	76.5	i	0.92
O=C(O)c1ccc2c(c1)C(=O)/C(=C/c1ccccc1)C2=O	-0.6	103.5	-1.5	20.0	123.3	i	1.02
COC(=O)CSc1nc(C)cc(Oc2ccccc2)n1	-0.2	93.0	0.9	/	/	i	0.84
CC(=O)c1ccc(NC(=S)Nc2cccc(Cl)c2C)cc1	/	103.2	0.2	/	/	i	0.84
Cc1ccccc1C(=O)NC(=S)NCC(=O)c1ccccc1	-2.1	111.6	11.7	/	/	i	0.963
Cc1ccc(C(=O)CNc2ccccc2C)cc1	0.3	105.0	4.3	12.1	142.7	i	0.89
Cc1oc(-c2ccccc2)nc1CC(=O)O	-1.3	102.8	-2.0	10.7	155.9	i	1.07
